# Screens from PubChem.
# UCH37 DUB inh: inhibitors of human deubiquitinating enzyme UCH37; Q9Y5K5; purified proteasome/UCH37, Ub-AMC cleavage fluorescence; inhibition, % (concentration not given with the values); hit rate 0.33% among 330,000; AID 588478;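 active means mean of two replicates above 20%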;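 further: 0% = compound-free wells with enzyme and 100% = wells lacking proteasome; stock transfer was 100 nL into about 20 µL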
# Target sequence (Q9Y5K5 whole entry, looked up): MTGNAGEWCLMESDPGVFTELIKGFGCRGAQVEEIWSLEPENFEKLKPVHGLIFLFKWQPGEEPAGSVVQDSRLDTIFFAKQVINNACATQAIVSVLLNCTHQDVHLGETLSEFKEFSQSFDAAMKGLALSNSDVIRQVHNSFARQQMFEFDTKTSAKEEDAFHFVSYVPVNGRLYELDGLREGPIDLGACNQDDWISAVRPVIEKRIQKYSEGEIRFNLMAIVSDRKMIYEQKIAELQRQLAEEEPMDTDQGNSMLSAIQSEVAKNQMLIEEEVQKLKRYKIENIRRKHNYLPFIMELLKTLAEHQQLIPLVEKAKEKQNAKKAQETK
#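 system = Proteasome-associated human UCH37 deubiquitinase | amount = 0.15 nM proteasome as dispensed | medium = pH 7.4 Tris-HCl (50 mM) with ovalbumin, ATP-MgCl2, DTT | incubation = 30 min preincubation with enzyme, 25 min cleavage at room temperature | detection = AMC fluorescence 355/460 nm | read-out basis = percent inhibition | controls = no-proteasome and no-compound wells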
# FGF22 binding: binders of recombinant human FGF22 by thermal shift | Q9HCT0 | SYPRO orange fluorescence; percent of sucrose octasulfate shift, DMSO zero | calls only at 9.99 µM | hit rate 1.5% among 340,000;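 active means melting point raised past a set limit in the mean and every replicate; inconclusive means no clear call; three in four hits are not shown here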
# Target sequence (Q9HCT0 whole entry, looked up): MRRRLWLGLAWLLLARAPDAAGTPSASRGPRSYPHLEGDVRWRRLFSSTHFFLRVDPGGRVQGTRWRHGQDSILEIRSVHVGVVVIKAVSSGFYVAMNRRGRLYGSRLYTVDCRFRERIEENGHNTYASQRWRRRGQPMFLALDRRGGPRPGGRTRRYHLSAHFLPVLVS
# Beta apoptosis: blocks beta cell apoptosis; AID 435005; INS-1E cytokine-induced death, ATP luminescence, 48 h; percent of positive-control rescue, neutral wells zero; protection from apoptosis, % (no concentration beside the values); hit rate 0.8% among 300,000;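 active means all replicates at 75% or more, or half of them and the mean; inconclusive means half reach 75% but not the mean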;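 further: 0% = cytokine-treated negative control wells and 100% = positive control rescue; higher means more ATP so stronger rescue from cytokine killing; wells of about 40 µL received 100 nL stock; the first replicate is given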
# rRNA inh HTS: inhibits bacterial ribosomal RNA function over humanized ribosomes; E. coli WT GFP vs humanized-ribosome RFP mutants, fluorescence, 24 h; hits give low values; DMSO median 0, no signal -100; GFP signal change (wild-type ribosome), % (concentration not given with the values); hit rate 1.6% among 350,000;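 active means significant combined selectivity score with lowered wild-type GFP, culture density cut under 30%, mutant RFP and density less affected; inactive means any of these conditions unmet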; further: one replicate is shown; some compounds called inactive have numbers as strong as hits
# A1 inh: inhibitors of the anti-apoptotic protein A1, read as caspase activation; MEF A1-2A-BIM cells, Caspase-Glo 3/7 luminescence, 3 h; percent of clofoctol response, vehicle zero; caspase activation, % (no concentration beside the values); AID 2462; hit rate 0.066% among 330,000;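 active means over half of replicate activation scores above 10%, or exactly half above 10 with the replicate mean above 10; inconclusive means replicate mean below 10 yet half the replicates above 10; inactive means over half of replicates below 10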;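 further: wells of about 30 µL received 50 nL stock; many hits fall short of the cut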
# Ecoli growth: blocks Escherichia coli growth; OD600, 23 h; hits give low values; OD600 absorbance (no concentration beside the values); hit rate 0.21% among 330,000;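 active means OD600 absorbance below the run mean of sample wells minus 3.6 SD, in any replicate, cut at about 0.56 in these data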;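 further: stock transfer was 300 nL into about 60 µL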
# T cruzi repl: T. cruzi replication inhibition; inhibition, % (concentration not given with the values); T. cruzi beta-gal in NIH3T3, luminescence, 90 h; AID 1885; hit rate 1.4% among 300,000;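 active means mean inhibition across valid replicates above about 55%, limit read from the data; inconclusive means mean below that limit but half or more replicates reach it; inactive means mean below it, under half of replicates reach it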;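 further: signal also drops with host cell toxicity which is not excluded here; 0% = plate median of DMSO wells and 100% = zero luminescence signal; higher percent means less beta-gal luminescence so fewer parasites; stock transfer was 50 nL into about 50 µL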
# AF4-AF9 inh: blocks AF4 peptide binding to human AF9. P42568. AlphaScreen, biotin-AF4 peptide binding to FLAG-AF9. inhibition, % at 10 µM. hit rate 0.47% among 350,000;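 active means every replicate reaching a set inhibition limit, whatever the replicate mean, cut at about 25% in these data; inconclusive means mean inhibition reaches that limit but some replicates miss it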;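 further: 0% = plate neutral control median and 100% = total signal loss; the record names both 10 and 1 µM as test concentration; the first replicate is given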
# Target sequence (P42568 whole entry, looked up): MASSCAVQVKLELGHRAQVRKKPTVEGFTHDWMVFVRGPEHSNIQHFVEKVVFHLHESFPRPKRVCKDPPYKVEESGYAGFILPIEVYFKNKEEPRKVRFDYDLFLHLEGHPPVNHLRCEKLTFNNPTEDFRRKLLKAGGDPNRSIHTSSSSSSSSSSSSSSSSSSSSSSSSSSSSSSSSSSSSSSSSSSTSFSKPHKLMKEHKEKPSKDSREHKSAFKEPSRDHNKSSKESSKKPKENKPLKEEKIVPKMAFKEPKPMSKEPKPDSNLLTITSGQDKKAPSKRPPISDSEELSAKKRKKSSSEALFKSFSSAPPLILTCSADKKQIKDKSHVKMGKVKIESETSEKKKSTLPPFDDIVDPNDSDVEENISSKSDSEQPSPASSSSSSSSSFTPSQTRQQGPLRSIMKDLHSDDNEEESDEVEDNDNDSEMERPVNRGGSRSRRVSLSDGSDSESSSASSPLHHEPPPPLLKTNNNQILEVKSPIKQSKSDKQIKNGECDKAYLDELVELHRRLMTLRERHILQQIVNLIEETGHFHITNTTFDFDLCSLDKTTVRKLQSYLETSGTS
# rRNA inh HTS OD600: recorded beside rRNA inh HTS, whose call it bears; OD600 change, %; measured here: OD600 growth;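 optical density of the mix in the first replicate; 0 = DMSO median and -100 = no signal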
# rRNA inh HTS RFP: recorded beside rRNA inh HTS, whose call it bears; RFP signal change, %; measured here: RFP humanized mutant strains;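 first replicate; 0 = DMSO median and -100 = no signal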
# The depositor's hits bear a star; i = inactive; ? = inconclusive; · = not tested or not shown.
SMILES,UCH37 DUB inh,FGF22 binding,Beta apoptosis,rRNA inh HTS,rRNA inh HTS OD600,rRNA inh HTS RFP,A1 inh,Ecoli growth,T cruzi repl,AF4-AF9 inh
CS(=O)(=O)N1CCN(Cc2ccccc2C(F)(F)F)CC1,2.6,·,3,·,·,·,0.0,0.75,3,·
COc1ccc(N2CCN(CCCNC(=O)C3CCC(CNc4nc(=S)[nH]c5ccccc45)CC3)CC2)cc1 (centres undefined),3.6,·,18,15,14,-0.5,0.0,0.64,20,4.7
CN(c1ccccc1)S(=O)(=O)c1ccc(Cl)c(C(=O)Nc2ccccc2N2CCOCC2)c1,4.3,i,·,-8,-13,5.2,·,0.71,·,0.5
COc1cccc(CC(NC(C)=O)C(=O)NC2CCN(C(=O)c3ccc(Cl)cc3)CC2)c1OC (centres undefined),·,i,-1,3,8,2.7,0.4,·,6,0.3
COc1ccc2oc(C(=O)OCC(=O)NCc3ccccc3OC)c(C)c2c1,-15,i,-4,15,14,-0.6,-0.2,0.64,-7,-9.1
CCCc1cc(=O)oc2cc(OC3CCCCC3=O)ccc12 (centres undefined),-58,i,-4,-5,-3,-4.6,0.4,0.68,0,-2.5
CC(=O)N(C)c1ccc(NS(=O)(=O)c2cccc3nsnc23)cc1,2.7,i,-2,4,7,-0.3,0.0,0.62,-8,-4.3
Cc1ccc(C)n1-c1cccc(S(=O)(=O)N2CCOCC2)c1,1.6,i,·,31,19,2.7,-0.3,0.69,14,-0.8
O=C(NCc1ccco1)c1ccc(COc2cccc3ccccc23)cc1,4.4,i,-1,-24*,-1.7*,-1.5*,-0.5,0.72,-9,-73
O=C(Nc1ccccc1)/C(=C/c1ccc2c(c1)OCO2)NC(=O)c1ccco1,0.3,·,-4,·,·,·,0.8,0.68,20,·
Cc1ccnc2nc(C(=O)OCC(=O)c3ccccc3)nn12,3.3,i,-7,15,9,1.1,1.0,0.67,·,-6.9
CCC(CO)n1c(SCc2cc([N+](=O)[O-])cc3c2OCOC3)nc2ccccc2c1=O (centres undefined),3.2,·,1,·,·,·,0.9,0.71,4,·

# Among those listed so far, these contain a furan ring, fused or not:
SMILES,UCH37 DUB inh,FGF22 binding,Beta apoptosis,rRNA inh HTS,rRNA inh HTS OD600,rRNA inh HTS RFP,A1 inh,Ecoli growth,T cruzi repl,AF4-AF9 inh
COc1ccc2oc(C(=O)OCC(=O)NCc3ccccc3OC)c(C)c2c1,-15,i,-4,15,14,-0.6,-0.2,0.64,-7,-9.1
O=C(NCc1ccco1)c1ccc(COc2cccc3ccccc23)cc1,4.4,i,-1,-24*,-1.7*,-1.5*,-0.5,0.72,-9,-73
O=C(Nc1ccccc1)/C(=C/c1ccc2c(c1)OCO2)NC(=O)c1ccco1,0.3,·,-4,·,·,·,0.8,0.68,20,·

# Carrying on.
SMILES,UCH37 DUB inh,FGF22 binding,Beta apoptosis,rRNA inh HTS,rRNA inh HTS OD600,rRNA inh HTS RFP,A1 inh,Ecoli growth,T cruzi repl,AF4-AF9 inh
O=C(c1ccc(Cl)c(S(=O)(=O)N2CCCCCC2)c1)N1CCOCC1,1.3,i,0,4,-2,1.2,-1.5,0.69,1,0.2
Cc1cc(C(F)(F)F)nc(SCC(=O)NC2CCCCC2)n1,6.7,i,·,2,4,-0.8,0.2,0.68,-1,-1.8
Cc1cc(-c2nnc(SCc3ccccn3)o2)no1,3.5,·,0,·,·,·,0.5,0.69,-4,·
O=c1cc(N2CCc3ccccc32)[nH]c(=O)n1-c1ccc(Br)cc1,1.2,i,·,-8,-4,9.1,·,0.73,4,6.8
COc1cccc(OC)c1C(=O)OCC(=O)N1CCC(Cc2ccccc2)CC1,4.0,i,-7,-13,-44,-10,-0.4,0.7,·,-1.4
COc1cc(C)nc(OCCNS(=O)(=O)c2cc(C)ccc2C)n1,-2.0,·,-3,·,·,·,0.1,0.75,-4,·
Cn1cc(/C=C(\NC(=O)c2ccccc2)C(=O)NCCN2CCOCC2)c2ccccc21,10,i,-10,1,3,15,0.5,0.65,10,3.9
CCC(=O)Nc1ccc(C2C(=O)c3ccccc3C2=O)cc1,9.2,·,11,7,6,2.9,-5.9,0.67,9,0.1
O=C(c1cc2cc(Cl)ccc2[nH]1)N1CCN(c2ccccc2F)CC1,1.2,i,-5,8,13,-0.6,-0.2,0.71,0,-0.8
CCN(CC)CCn1c2c(c(SCC(=O)NCc3ccccc3)nc1=O)CCCC2,0.6,i,-8,-1,4,-0.2,1.2,0.69,5,-1.7
O=C(CN1CCN(C(=O)c2ccccc2)CC1)Nc1ccc(Br)cn1,1.3,·,3,·,·,·,0.0,0.74,2,·
NS(=O)(=O)c1ccc(NC(=O)COC(=O)CCC2CCCC2)cc1,2.3,i,-8,10,12,0.4,1.0,0.68,-7,-4.6
Cc1c(Cl)cccc1NC(=O)COC(=O)c1c2c(nc3ccccc13)CCN(Cc1ccccc1)C2,1.1,i,15,·,·,·,0.0,0.71,68*,1.6
CC1CC(=O)Nc2ccccc2N1C(=O)Nc1ccc(F)cc1 (centres undefined),1.5,i,2,15,14,1.8,-0.1,0.66,3,-4.1
O=C(NCCCN1CCOCC1)C1(c2ccccc2)CCCC1,-1.8,·,-2,·,·,·,0.3,0.75,1,·
CN(C1=NS(=O)(=O)c2ccccc21)c1ccc(OC(=O)c2ccccc2)cc1,-0.7,i,2,11,14,-1.9,-0.3,0.64,-18,-0.1
CC(C)c1cc(C(C)C)c(S(=O)(=O)NNC(=O)c2ccncc2)c(C(C)C)c1,6.3,·,-1,·,·,·,0.5,0.7,-14,·
Cc1nn(CC(=O)OCC(=O)NCCc2ccc(S(N)(=O)=O)cc2)c(C)c1[N+](=O)[O-],2.7,i,-7,13,12,3.1,-0.3,0.64,·,-2.8
CC(Sc1nnc(N)s1)C(=O)Nc1ccc2c(c1)OCO2 (centres undefined),2.4,i,·,9,9,2.0,·,0.6,·,2.6
O=Cc1ccc(OCc2cn3ccccc3n2)cc1,0.5,i,-1,5,10,-0.3,-1.0,0.62,10,-1.0
O=c1c2c(nc3nc(Cc4ccccc4)[nH]n13)CCC2,-0.1,·,·,·,·,·,0.0,0.66,-17,·
Oc1csc(Cc2nc(-c3ccc(-c4ccccc4)cc3)cs2)n1,-2.1,·,-7,·,·,·,-0.2,0.73,-10,·
CCOC(=O)N1CCN(C(=S)Nc2ccc(C)c(C)c2)CC1,3.3,·,-14,·,·,·,0.6,0.68,-12,·
Cc1csc(NC(=O)Cc2ccc(Cl)cc2)n1,0.4,i,·,-13,2,3.0,0.0,0.68,-11,-1.8
CC1CCCN(CCCNC(=O)c2cn(C)c3ccc(S(=O)(=O)N(C)C4CCCCC4)cc3c2=O)C1 (centres undefined),7.0,i,0,1,-3,0.3,0.1,0.66,29,1.0
CCCOC(=O)c1c(N)sc(C(=O)OCC)c1C,3.8,·,-12,·,·,·,-0.7,0.66,24,·
CCOC(=O)CN1C(=O)N(CC(=O)OCC)C(c2ccccc2)(c2ccccc2)C1=O,·,i,-3,-8,-12,-0.3,0.0,·,4,6.9
COc1ccccc1NC(=S)NCc1ccc2c(c1)OCO2,3.5,i,2,·,·,·,-0.3,0.68,7,-1.0
O=C(NC1CCCCCC1)c1ccc2c(=O)n3c(nc2c1)CCCCC3,1.3,·,-3,·,·,·,-5.8,0.77,16,·
COCc1cc(C)n(CC(=O)Nc2ccc(Cl)cc2Cl)c(=O)c1C#N,-27,·,-7,·,·,·,0.6,0.71,13,·
CCCNC(=S)N1CC2(C)CN(C(=O)C(=O)OC)CC(C)(C1)C2=O,1.4,i,-1,12,7,-1.8,0.1,0.69,-9,-1.6
O=C(COC(=O)c1ccc(Cl)nc1)Nc1ccccc1OC(F)F,2.0,i,-7,-3,-6,-0.2,1.0,0.69,-13,0.8
O=C(/C=C/c1ccccc1)N1CCN(CCN2C(=O)c3cccc4cccc(c34)C2=O)CC1,3.1,i,15,-30,-56,-16,-0.2,0.69,34,15
Cc1cccn2c(=O)c(C=Nc3ccc(Cl)cc3)c(NCCO)nc12,-47,·,1,·,·,·,0.0,0.73,9,·
COC(=O)c1ccc(C)c(NC(=O)c2ccc(Cl)c([N+](=O)[O-])c2)c1,1.6,·,-4,·,·,·,-0.7,0.7,6,·
O=C(O)c1ccccc1NS(=O)(=O)c1ccc(NN=Cc2ccccc2F)c([N+](=O)[O-])c1,18,i,-4,-4,10,-2.0,1.6,0.66,·,-8.2
Cc1cc(C)cc(NC(=O)CN2CCN(c3ncccn3)CC2)c1,1.5,i,-10,15,12,-9.2,0.6,0.64,10,2.8
Cc1nc2ccccc2nc1OCC(=O)NCC(F)(F)F,-35,·,-2,·,·,·,1.3,0.64,-23,·
COc1ccc(OC)c(C2/C(=C(/O)c3ccc(C)cc3)C(=O)C(=O)N2Cc2ccco2)c1 (centres undefined),9.5,·,2,·,·,·,0.6,0.71,-15,·
COc1ccccc1CNC(=O)c1cc(S(=O)(=O)N2CCOCC2)cn1C,4.8,i,-6,9,1,-0.5,0.1,0.66,-8,0.5
Cc1cccn2c(=O)c(/C=C(\C#N)C(=O)NCc3ccco3)c(N3CCCCCC3)nc12,3.1,i,11,-30*,-21*,-1.9*,-1.0,0.72,40,·
CN(Cc1cccc(F)c1)C(=O)C1CC(=O)N(c2ccc3c(c2)OCCO3)C1 (centres undefined),-2.5,i,-3,2,5,-0.6,1.7,0.66,·,0.8
COc1cccc(-c2cc(C(=O)Nc3ccc4c(c3)OCO4)no2)c1,-50,i,·,3,11,-1.8,-5.7,0.68,4,-5.3
CCOc1ccc(NC(=O)CN(C)C(=O)C2CCCC2)cc1OCC,0.1,i,3,5,3,-3.1,0.2,0.64,-9,-0.4
CN1CCN(/N=C/c2nc(-c3ccc(Cl)cc3)n3ccccc23)CC1,·,i,-3,·,·,·,-0.5,·,10,?
CCCCc1cc(=O)oc2c(C)c(OCC(=O)NCC3CCC(C(=O)O)CC3)ccc12 (centres undefined),-18,i,-4,·,·,·,0.4,0.69,-1,4.1
CC1CCCN(C(=O)C(Cc2ccccc2)n2cccc2)C1 (centres undefined),1.1,i,-7,1,-15,-0.6,0.7,0.76,-1,0.3
COC(=O)C1=C[C@@H](C(=O)OC)[C@@H]2C3=C(C(=O)C2(C)C)[C@H](c2ccccc2)[C@@H]2C(=O)N(C)C(=O)[C@@H]2[C@@H]3C1,3.2,i,·,2,5,0.5,0.6,·,-3,?
COc1ccccc1-n1cnnc1SCC(=O)NCC1CCCO1 (centres undefined),-0.3,i,-1,14,13,1.5,0.0,0.66,-8,-1.0
CC(C)c1ccccc1NC(=O)CC1(CC(=O)O)CCCC1,0.3,i,-4,1,2,3.6,0.1,0.69,-10,1.4
CCN(CC)S(=O)(=O)c1cc(NS(=O)(=O)c2ccccc2)ccc1C,-22,·,-1,·,·,·,0.3,0.69,-14,·
COc1ccc(NC(=O)C2CCN(S(=O)(=O)c3c(C)nn(C)c3C)CC2)cc1,6.0,i,-2,2,10,-0.6,-0.4,0.66,2,0.2

# Only part of the results is shown (hit frequency here may not be typical).
